MLL AF4-AF9 inh = blocks AF4 peptide binding to human AF9; inhibition, % at 10 µM; AlphaScreen, biotin-AF4 peptide binding to FLAG-AF9; actives 0.47% (n = 350,000); AID 651704; P42568;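 active means every replicate reaching a set inhibition limit, whatever the replicate mean, cut at about 25% in these data; inconclusive means mean inhibition reaches that limit but some replicates miss it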;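 further: 0% = plate neutral control median and 100% = total signal loss; the record names both 10 and 1 µM as test concentration; the first replicate is given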
Target sequence (P42568 whole entry, looked up): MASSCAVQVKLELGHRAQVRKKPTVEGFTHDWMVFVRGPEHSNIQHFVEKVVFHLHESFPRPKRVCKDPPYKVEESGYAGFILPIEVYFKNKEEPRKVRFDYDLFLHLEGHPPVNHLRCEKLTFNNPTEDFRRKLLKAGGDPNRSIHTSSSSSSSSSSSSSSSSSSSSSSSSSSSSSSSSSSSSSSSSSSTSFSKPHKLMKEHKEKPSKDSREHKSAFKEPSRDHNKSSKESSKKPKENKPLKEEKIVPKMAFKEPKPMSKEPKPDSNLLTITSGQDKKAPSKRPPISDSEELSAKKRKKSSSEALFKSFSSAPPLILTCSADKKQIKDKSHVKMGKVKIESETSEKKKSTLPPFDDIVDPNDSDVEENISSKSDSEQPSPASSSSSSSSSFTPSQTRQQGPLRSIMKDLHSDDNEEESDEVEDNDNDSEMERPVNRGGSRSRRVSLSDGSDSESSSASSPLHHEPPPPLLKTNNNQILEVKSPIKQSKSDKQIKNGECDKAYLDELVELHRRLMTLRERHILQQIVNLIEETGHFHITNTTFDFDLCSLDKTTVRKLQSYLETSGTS
Ecoli growth = blocks Escherichia coli growth. OD600, 23 h; stronger effect = lower value. OD600 absorbance (concentration not given with the values). actives 0.21% (n = 330,000);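 active means OD600 absorbance below the run mean of sample wells minus 3.6 SD, in any replicate, cut at about 0.56 in these data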;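 further: stock transfer was 300 nL into about 60 µL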
HNF4A DNA FP = change in binding of human HNF4 alpha to DNA; HNF4a-FITC DNA binding, fluorescence polarization, 1 h; activity change, % at 10 µM; actives 0.3% (n = 360,000); AID 1224865; in the data active means activity change above about 30%, passing the limit was not always enough;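 further: controls were the assay level and a saturating level of protein; the project sought stronger binding though the title names inhibitors; some compounds called inactive have numbers as strong as hits; positive values seem to mean higher polarization but the record does not say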
RanGTP-Impb inh = disruptors of Ran-importin-beta complex formation – biochemical, FRET, CFP-Ran, YFP-importin-beta, homogeneous, primary screen | actives 1.1% (n = 300,000) | cell-free CFP-Ran/YFP-importin-beta FRET ratio | inhibition, % (no concentration beside the values);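 active means most replicates above 15%; inconclusive means exactly half above 15%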;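 further: 0% = DMSO wells and 100% = Ran loaded with GDP instead of GTP; wells of about 40 µL received 100 nL stock; the first replicate is given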
Vif TR-FRET = HIV-1 Vif–A3G interaction blockers – biochemical, TR-FRET, GST-Vif 1-94, biotin-A3G peptide, dose response retest, primary screen (AID 1117319) | actives 0.57% (n = 260,000) | inhibition, %, or IC50 in µM where a hit was titrated | TR-FRET GST-Vif / biotin-A3G peptide binding; higher % means a stronger effect; test concentration not given here; strong numbers were not always called active;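 active means above the screen mean plus three standard deviations and confirmed in dose response; inconclusive means results disagree or hit not tested in dose response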;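 further: Vif residues 1-94 fused to GST binding biotinylated APOBEC3G peptide 110-148; 0% = full assay without inhibitor and 100% = GST in place of GST-Vif; retest series ran down from 100 µM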
UCH37 DUB inh = blocks the human deubiquitinase UCH37; Q9Y5K5; purified proteasome/UCH37, Ub-AMC cleavage fluorescence; inhibition, % (concentration not given with the values); actives 0.33% (n = 330,000); AID 588478;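 active means mean of two replicates above 20%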;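 further: 0% = compound-free wells with enzyme and 100% = wells lacking proteasome; stock transfer was 100 nL into about 20 µL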
Target sequence (Q9Y5K5 whole entry, looked up): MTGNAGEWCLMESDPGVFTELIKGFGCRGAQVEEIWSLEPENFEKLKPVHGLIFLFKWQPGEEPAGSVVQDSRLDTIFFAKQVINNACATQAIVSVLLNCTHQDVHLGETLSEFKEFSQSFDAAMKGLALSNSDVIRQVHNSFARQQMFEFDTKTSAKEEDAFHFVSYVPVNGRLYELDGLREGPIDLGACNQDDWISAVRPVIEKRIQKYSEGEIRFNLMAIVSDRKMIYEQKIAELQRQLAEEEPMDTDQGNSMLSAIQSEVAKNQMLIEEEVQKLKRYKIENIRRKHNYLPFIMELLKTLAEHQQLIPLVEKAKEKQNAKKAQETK
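Test system – human UCH37 enzyme supplied as purified proteasome complex · Incubation – 30 min preincubation with enzyme, 25 min cleavage at room temperature · Detection – AMC fluorescence from Ub-AMC cleavage, excitation 355 nm, emission 460 nm · Benchmarks – no-proteasome wells (full inhibition) and compound-free wells (no inhibition)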
FGF22 binding = shifts melting point of recombinant human FGF22; Q9HCT0; recombinant FGF22 thermal shift, SYPRO orange fluorescence; percent of sucrose octasulfate shift, DMSO zero; calls only at 9.99 µM; actives 1.5% (n = 340,000); AID 651658;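 active means melting point raised past a set limit in the mean and every replicate; inconclusive means no clear call; three in four hits are not shown here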
Target sequence (Q9HCT0 whole entry, looked up): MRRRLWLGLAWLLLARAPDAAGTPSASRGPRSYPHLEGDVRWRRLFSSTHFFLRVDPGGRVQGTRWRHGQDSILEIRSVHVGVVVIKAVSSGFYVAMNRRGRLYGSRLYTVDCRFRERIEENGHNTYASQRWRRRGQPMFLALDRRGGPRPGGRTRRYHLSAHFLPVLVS
Starred values were filed as active, the others as inactive; i = inactive; u = inconclusive; x = no result given.

SMILES | MLL AF4-AF9 inh | Ecoli growth | HNF4A DNA FP | RanGTP-Impb inh | Vif TR-FRET | UCH37 DUB inh | FGF22 binding
CC(C)[C@H](NC(=O)c1cccc(S(=O)(=O)N2CCOCC2)c1)C(=O)Nc1nc2ccccc2s1 | x | 0.7 | 0.8 | 2.2 | x | 1.5 | x
O=C(C1CCOCC1)N1CCC(CO)(CCc2ccccc2)CC1 | 1.2 | 0.68 | -1.2 | 0.2 | x | 0.5 | i
O=C(COC(=O)C1CCN(c2ccc(C(F)(F)F)cn2)CC1)c1cccc(Br)c1 | -1.8 | 0.64 | -3.7 | -1.9 | -3% | 1.1 | i
NS(=O)(=O)c1ccc(N2C(=O)C3C4CC(C(Br)C4Br)C3C2=O)cc1 (stereo not given) | 0.4 | 0.65 | 1.1 | x | u | -0.3 | i
CCC(C)(C(=O)NC1CCCC1)N(C(=O)CNC(=O)c1ccccc1)c1c(C)n(C)n(-c2ccccc2)c1=O (stereo not given) | -0.3 | 0.68 | 0.4 | 1.8 | x | 1.9 | i
Cc1noc(C)c1CSc1nnnn1-c1ccc(Cl)cc1 | x | 0.72 | 2.5 | 0.2 | 12% | 7.0 | x
CCOC(=O)c1cn(Cc2ccc(C)cc2)c2cc(F)ccc2c1=O | 1.7 | 0.62 | -0.2 | -4.0 | 0% | -1.2 | i
Cc1ccc(NC(=O)Cn2cnc(C(=O)Nc3ccc(C)c(C)c3)n2)cc1C | -7.2 | 0.67 | 0.4 | x | x | -0.7 | i
CC(NC(=O)CSc1nnnn1C1CC1)c1ccccc1Br (stereo not given) | 0.9 | 0.68 | -0.9 | x | x | 0.2 | i
COc1cccc(-c2csc(N3CCN(CC(=O)NNC(=O)c4ccc(Cl)cc4)CC3)n2)c1 | 3.2 | 0.7 | 1.1 | 8.5 | -1% | -0.1 | i
CCOC(=O)C1CCN(c2c(NC3CCCCCCC3)c(=O)c2=O)CC1 | -1.2 | 0.77 | -2.6 | -7.8 | 3% | 6.9 | i
COc1cc(C(=O)NC(=S)Nc2cccc3nc(C)ccc23)cc(OC)c1OC | -9.2 | 0.66 | -0.1 | -1.9 | -2% | 2.7 | i
CC(=O)N(CCCc1ccc(C(C)(C)C)cc1)CCCN(C)C | x | 0.71 | 3.7 | 3.2 | 1% | 1.8 | x
CCOc1ccc(S(=O)(=O)N2CCC(C(=O)N3CCc4ccccc4C3)CC2)cc1 | 2.3 | 0.71 | -2.7 | -1.5 | -3% | 5.0 | i
CC1(C)C2CC[C@]3(C)C(CC=C4[C@@H]5C[C@@](C)(CO)[C@@H](O)C[C@]5(C(=O)O)CC[C@]43C)[C@@]2(C)CC[C@@H]1O (stereo not given in full) | x | 0.72 | -0.3 | -3.2 | x | 1.1 | x
COC(=O)[C@@H](NC(=O)Nc1cccc(Br)c1)C(C)C | -1.4 | 0.71 | -1.9 | 3.1 | 5% | 4.9 | i
O=C(Nc1ccc(Oc2ccccc2)nc1)C1CCCCN1Cc1ccc(OCCO)cc1 (stereo not given) | -5.5 | 0.71 | 3.9 | 0.3 | x | -0.7 | i
CCOC(=O)c1ccc(-c2ccc(N3C(c4cccc(OC)c4)=Cc4ccc(F)cc4C3CC(C)=O)cc2)cc1F (stereo not given) | -6.4 | x | -3.3 | x | x | x | i
O=C(CSc1cccc[n+]1[O-])Nc1cccc(Oc2ccccc2)c1 | 1.7 | 0.64 | 4.0 | -3.1 | -1% | 4.4 | i
c1ccc(-c2cn3c(n2)CCC3)cc1 | x | 0.74 | 2.0 | -1.2 | 3% | 1.0 | x
Cc1ccc(NC(=O)N(C)c2ccccc2)cc1 | -0.2 | 0.69 | -2.2 | -2.9 | 1% | 2.2 | i
Cn1c(SCC(=O)c2cc(Cl)c(Cl)s2)nnc1-c1ccco1 | -2.4 | x | -2.8 | 0.5 | 31µM* | x | i
CCN(C[C@H]1N[C@@](C)(C(=O)OC)[C@H]2C(=O)N(C)C(=O)[C@@H]12)S(=O)(=O)c1ccc(OC)cc1 | -1.1 | 0.71 | -0.3 | x | 12% | 3.3 | i
COc1ccccc1NC(=O)CN1C(=O)COc2ccc(S(=O)(=O)N3CCOCC3)cc21 | -1.5 | 0.69 | 0.4 | -1.9 | x | 7.7 | i
O=C(Cc1ccc(Br)cc1)Nc1ccccc1Sc1ccccc1 | x | 0.71 | 0.8 | 0.7 | 4% | 4.1 | x

The final four compounds of the part above lead into the next.
SMILES | MLL AF4-AF9 inh | Ecoli growth | HNF4A DNA FP | RanGTP-Impb inh | Vif TR-FRET | UCH37 DUB inh | FGF22 binding
Cn1c(SCC(=O)c2cc(Cl)c(Cl)s2)nnc1-c1ccco1 | -2.4 | x | -2.8 | 0.5 | 31µM* | x | i
CCN(C[C@H]1N[C@@](C)(C(=O)OC)[C@H]2C(=O)N(C)C(=O)[C@@H]12)S(=O)(=O)c1ccc(OC)cc1 | -1.1 | 0.71 | -0.3 | x | 12% | 3.3 | i
COc1ccccc1NC(=O)CN1C(=O)COc2ccc(S(=O)(=O)N3CCOCC3)cc21 | -1.5 | 0.69 | 0.4 | -1.9 | x | 7.7 | i
O=C(Cc1ccc(Br)cc1)Nc1ccccc1Sc1ccccc1 | x | 0.71 | 0.8 | 0.7 | 4% | 4.1 | x
CCCCSc1nc2c(cnn2-c2ccccc2)c(=O)n1N | -0.7 | 0.67 | -0.2 | -1.4 | 24% | 0.3 | i
CC(=O)Nc1ccc(C(=O)N2CCCCC2c2cc(C(=O)Nc3cccc4c3CCCC4)no2)cc1 (stereo not given) | 0.2 | x | 1.1 | x | x | x | i
O=C(NNc1cc(N2CCCC2)nc(N2CCCC2)n1)c1ccc([N+](=O)[O-])cc1 | 10 | 0.64 | 2.9 | -1.3 | 1% | 4.0 | i
O=C(COC(=O)c1ccco1)NCc1ccc2c(c1)OCO2 | -2.0 | 0.7 | 3.4 | -1.8 | 18% | 1.5 | i
Cc1ccccc1Cn1c(=O)n(CCC(=O)NCc2ccc3c(c2)OCO3)c(=O)c2ccccc21 | x | 0.69 | 2.4 | -2.6 | 5% | 0.6 | x
N/C(=N\OC(=O)c1ccc2c(c1)OCO2)c1cccc(Br)c1 | -0.2 | 0.61 | 0.9 | -0.1 | 27% | 2.3 | i
O=C(CN1CCN(Cc2ccccc2Cl)CC1)N/N=C/c1ccco1 | x | x | 0.9 | 1.0 | -2% | x | i
O=C(CSCc1ccc(Cl)cc1)Nc1ccc(-c2nnc(-c3ccccc3)o2)cc1 | x | x | 12 | 0.0 | 14% | x | x
COc1ccc(NC(=O)n2ncc3cc(Cl)ccc32)cc1OC | 4.5 | 0.66 | 2.1 | u | 6% | 3.5 | i
CCOc1ccc(/C=N/NC(=O)COc2ccccc2-c2ccccc2)cc1 | x | x | 3.6 | -1.1 | -2% | x | x
O=C(NCCCN1CCOCC1)c1ccc2c(=O)n(CCc3ccccc3)c(=O)[nH]c2c1 | x | 0.7 | 0.7 | 2.3 | 19% | -14 | x
CCN(CC)S(=O)(=O)c1ccc2[nH]c(=O)c3ccccc3c2c1 | 5.1 | 0.71 | -3.6 | 1.1 | x | -0.6 | i
Cc1ccc(-n2c(N)c(C(N)=O)sc2=S)c(C)c1 | x | 0.64 | -0.4 | -5.5 | 19% | 12 | x
COCC1CCCC1OS(N)(=O)=O (stereo not given) | -15 | 0.73 | -1.1 | u | x | 0.8 | i
O=C(COC(=O)/C=C/c1c(F)cccc1Cl)NCC1CCCO1 (stereo not given) | -0.2 | 0.64 | 4.3 | x | 0% | 2.6 | i
O=C(CN1C(=O)NC2(CCCC2)C1=O)Nc1cc(Cl)ccc1N1CCOCC1 | -3.2 | 0.7 | 2.4 | -3.2 | -6% | 1.8 | i
O=C(NCCN=C1NS(=O)(=O)c2ccccc21)c1ccncc1 | x | 0.7 | -2.2 | -2.5 | 2% | 2.7 | x
CC(=O)c1c(C)[nH]c(C(=O)CSc2ccc(F)cc2)c1C | -47 | 0.67 | 0.9 | -2.8 | 29% | 2.5 | i
Cc1ccc(S(=O)(=O)NCC(c2ccccc2)N2CCN(c3ccc(F)cc3)CC2)cc1 (stereo not given) | 7.8 | 0.71 | -2.1 | 6.3 | x | 1.7 | i
OC(COc1ccc(Cl)cc1)CN1CCCCC1 (stereo not given) | 0.9 | 0.66 | 0.6 | 3.8 | -3% | 2.9 | i
O=C(NC1CCCC1)c1ccc(Br)o1 | x | 0.69 | 0.3 | 4.9 | 1% | 3.4 | x
Cn1c(N)c(C(=O)COC(=O)c2ccc3ccccc3c2)c(=O)n(C)c1=O | -1.7 | 0.75 | 1.3 | x | -3% | 1.6 | i
Cc1cnc(NC(=O)c2cc3c(s2)CCCC3)s1 | x | 0.66 | -0.6 | -4.1 | -1% | 1.8 | x
CC(=O)c1cccc(NC(=O)c2cc(-c3ccc(C)cc3)on2)c1 | x | 0.66 | -1.1 | 6.3 | -8% | 1.0 | x
COc1ccc(S(=O)(=O)Nc2ccc3c(c2)C(=O)N([C@H](C)CO)C[C@H](C)[C@@H](CN(C)S(=O)(=O)c2c(C)noc2C)O3)cc1 | 2.6 | 0.73 | 2.2 | x | x | -0.7 | i
(next part)
SMILES | MLL AF4-AF9 inh | Ecoli growth | HNF4A DNA FP | RanGTP-Impb inh | Vif TR-FRET | UCH37 DUB inh | FGF22 binding
COc1ccccc1/C=C1/C(=O)N(c2ccccc2)N=C1C | 0.1 | x | 0.7 | -4.6 | -5% | x | i
Cc1ccc(NC(=O)c2ccc(CSc3nnc(C)s3)cc2)c(C)c1 | x | 0.72 | 3.7 | 1.5 | 6% | -4.5 | x
CC1CCN(CCCOc2ccc(Br)cc2Cl)CC1 | 2.1 | 0.65 | 2.0 | 1.4 | 2% | -20 | i
CN1CCN(S(=O)(=O)c2ccc(NC(=O)c3ccc(F)cc3Cl)cc2)CC1 | 3.0 | 0.61 | 4.0 | 3.9 | 0% | 2.0 | i
CC(C)(C)c1ccc(Cn2c(=N)n(CC(O)c3ccco3)c3ccccc32)cc1 (stereo not given) | x | 0.64 | 31 | 4.3 | 9% | 2.8 | x
O=C(Nc1ccccc1C(=O)NCCCN1CCOCC1)c1ccc(F)cc1F | -2.3 | 0.66 | 2.4 | 2.4 | x | -1.1 | i
COc1ccc(C)cc1NC(=O)Nc1ccccc1SC | -8.2 | 0.67 | -4.3 | 3.2 | 25% | 3.0 | i
O=C(Nc1ccc(N2CCCC2)cc1)c1cc2ccccc2o1 | 5.1 | 0.66 | 11 | -0.2 | 0% | 4.1 | i
CC(=O)c1cc(F)c(N2CCN(C(=O)c3ccco3)CC2)cc1C | x | 0.74 | -4.6 | -0.9 | 5% | 0.1 | x
COc1ccc(-n2c(=S)[nH]c3ccccc32)cc1 | x | 0.71 | 2.2 | -1.9 | 25% | 1.7 | x
Cc1ccc(Nc2nc(Cl)nc(N(C)C#N)n2)cc1 | x | 0.72 | -2.4 | -1.6 | 4% | -0.1 | x
CC(=O)N1C(C)(C)CC(=NOC(=O)c2ccccc2)CC1(C)C | -2.2 | 0.65 | 0.6 | u | 4% | 3.3 | i
O=C(/C=C/c1ccccc1[N+](=O)[O-])N1CCN(c2ccccc2F)CC1 | -3.4 | 0.65 | 0.4 | -0.6 | 3% | 2.9 | i
CCOc1ccccc1NC(=O)CC1SC(=N)N(c2ccccc2)C1=O (stereo not given) | -1.4 | 0.7 | x | 1.2 | -1% | 0.4 | x
O=C(CN(C(=O)CCC(=O)Nc1ccccn1)c1cccc(F)c1)NCc1ccc2c(c1)OCO2 | 2.2 | 0.65 | 0.0 | u | x | 1.3 | i
Cc1ccc(C(=O)OCC(=O)Nc2sccc2C(N)=O)cc1NC(=O)c1ccco1 | x | 0.83 | 1.7 | -2.9 | -3% | -0.3 | x
N#Cc1c(Cl)cccc1Oc1ccc(S(=O)(=O)Nc2ccccc2)cc1 | x | 0.66 | 0.7 | -3.9 | x | 3.8 | i

Only part of the results is shown. The share of hits here may be higher or lower than overall.
